AF4-AF9 inh = MLL-AF4/AF9 protein interaction inhibition; P42568; AlphaScreen, biotin-AF4 peptide binding to FLAG-AF9; inhibition, % at 10 µM; 350,000 tested, 0.47% active;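 active means every replicate reaching a set inhibition limit, whatever the replicate mean, cut at about 25% in these data; inconclusive means mean inhibition reaches that limit but some replicates miss it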;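 further: 0% = plate neutral control median and 100% = total signal loss; the record names both 10 and 1 µM as test concentration; the first replicate is given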
Target sequence (P42568 whole entry, looked up): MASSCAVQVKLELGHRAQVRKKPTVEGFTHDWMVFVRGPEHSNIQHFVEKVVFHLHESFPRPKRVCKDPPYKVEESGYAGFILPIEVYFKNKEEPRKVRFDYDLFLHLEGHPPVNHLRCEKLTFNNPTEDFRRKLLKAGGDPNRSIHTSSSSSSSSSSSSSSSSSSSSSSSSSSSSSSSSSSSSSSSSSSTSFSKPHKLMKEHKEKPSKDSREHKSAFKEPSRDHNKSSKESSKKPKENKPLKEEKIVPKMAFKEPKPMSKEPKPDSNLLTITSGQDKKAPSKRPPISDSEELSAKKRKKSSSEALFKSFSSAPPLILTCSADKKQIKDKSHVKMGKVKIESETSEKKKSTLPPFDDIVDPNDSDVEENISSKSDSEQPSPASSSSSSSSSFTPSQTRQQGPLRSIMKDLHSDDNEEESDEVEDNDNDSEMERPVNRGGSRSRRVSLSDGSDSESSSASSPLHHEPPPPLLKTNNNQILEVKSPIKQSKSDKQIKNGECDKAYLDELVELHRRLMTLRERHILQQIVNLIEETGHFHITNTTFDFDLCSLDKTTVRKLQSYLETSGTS
Beta cell apopt = blocks beta cell apoptosis; INS-1E cytokine-induced death, ATP luminescence, 48 h; percent of positive-control rescue, neutral wells zero; protection from apoptosis, % (test concentration not listed); 300,000 tested, 0.8% active;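 active means all replicates at 75% or more, or half of them and the mean; inconclusive means half reach 75% but not the mean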;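 further: 0% = cytokine-treated negative control wells and 100% = positive control rescue; higher means more ATP so stronger rescue from cytokine killing; wells of about 40 µL received 100 nL stock; the first replicate is given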
rRNA inh HTS = inhibitors of bacterial rRNA selective over humanized ribosomes; 350,000 tested, 1.6% active; GFP signal change (wild-type ribosome), % (test concentration not listed); E. coli WT GFP vs humanized-ribosome RFP mutants, fluorescence, 24 h; stronger effect = lower value; DMSO median 0, no signal -100;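 active means significant combined selectivity score with lowered wild-type GFP, culture density cut under 30%, mutant RFP and density less affected; inactive means any of these conditions unmet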; further: one replicate is shown; some compounds called inactive have numbers as strong as hits
ALR inh = human ALR oxidase inhibition via reduced H2O2. 290,000 tested, 3.8% active. P55789. purified ALR, DTT oxidation, H2O2 HRP-luminol luminescence. inhibition, % (concentration not given with the values);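 active means mean and each replicate at 75% or more; inconclusive means only one of the two met; inactive means neither met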;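 further: stock transfer was 7.5 nL into about 7.5 µL; 0% = neutral wells and 100% = wells with inactivated enzyme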
Target sequence (P55789 whole entry, looked up): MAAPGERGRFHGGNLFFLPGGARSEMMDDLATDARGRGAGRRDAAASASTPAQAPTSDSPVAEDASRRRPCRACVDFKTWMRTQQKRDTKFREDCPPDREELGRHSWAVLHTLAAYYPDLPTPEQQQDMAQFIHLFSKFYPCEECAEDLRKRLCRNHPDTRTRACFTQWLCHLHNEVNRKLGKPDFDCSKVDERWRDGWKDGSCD
RanGTP-Impb inh = disruptors of Ran-importin-beta complex formation – biochemical, FRET, CFP-Ran, YFP-importin-beta, homogeneous, primary screen. cell-free CFP-Ran/YFP-importin-beta FRET ratio. inhibition, % (no concentration beside the values). 300,000 tested, 1.1% active;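 active means most replicates above 15%; inconclusive means exactly half above 15%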;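 further: 0% = DMSO wells and 100% = Ran loaded with GDP instead of GTP; wells of about 40 µL received 100 nL stock; the first replicate is given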
FGF22 binding = binders of recombinant human FGF22 by thermal shift; SYPRO orange fluorescence; percent of sucrose octasulfate shift, DMSO zero; calls only at 9.99 µM; 340,000 tested, 1.5% active;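 active means melting point raised past a set limit in the mean and every replicate; inconclusive means no clear call; three in four hits are not shown here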
Target sequence (Q9HCT0 whole entry, looked up): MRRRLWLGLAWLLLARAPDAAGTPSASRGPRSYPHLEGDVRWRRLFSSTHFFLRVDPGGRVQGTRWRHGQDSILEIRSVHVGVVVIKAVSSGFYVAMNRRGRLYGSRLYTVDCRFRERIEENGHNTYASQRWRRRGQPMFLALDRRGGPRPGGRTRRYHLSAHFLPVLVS
T cruzi repl = blocks replication of Trypanosoma cruzi; T. cruzi beta-gal in NIH3T3, luminescence, 90 h; inhibition, % (no concentration beside the values); 300,000 tested, 1.4% active; AID 1885;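 active means mean inhibition across valid replicates above about 55%, limit read from the data; inconclusive means mean below that limit but half or more replicates reach it; inactive means mean below it, under half of replicates reach it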;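 further: signal also drops with host cell toxicity which is not excluded here; 0% = plate median of DMSO wells and 100% = zero luminescence signal; higher percent means less beta-gal luminescence so fewer parasites; stock transfer was 50 nL into about 50 µL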
Calb FLC = C. albicans growth modulation with fluconazole; C. albicans CaCi-2 (fluconazole-resistant clinical isolate) + fluconazole, Alamar Blue growth, 48 h; growth inhibition, % (concentration not given with the values); 300,000 tested, 0.57% active;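 active means most replicates above 75%; inconclusive means exactly half above 75%; inactive means most below 75%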;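 further: all wells also contain fluconazole at 8 µg/ml as a sub-toxic cotreatment; 0% = median of DMSO wells and 100% = median of geldanamycin control wells; wells of about 8 µL received 7.5 nL stock; the first replicate is given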
rRNA inh HTS OD600 = further read-out of rRNA inh HTS, marked with its call; OD600 change, %; measured here: OD600 growth;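 optical density of the mix in the first replicate; 0 = DMSO median and -100 = no signal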
rRNA inh HTS RFP = second read-out of rRNA inh HTS, no call of its own (marks repeat the call); RFP signal change, %; measured here: RFP humanized mutant strains;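 first replicate; 0 = DMSO median and -100 = no signal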
* hit, by the source's call; i = inactive; ? = inconclusive; . = no result given. This is a subset; rates above refer to the full screens.

SMILES	AF4-AF9 inh	Beta cell apopt	rRNA inh HTS	rRNA inh HTS OD600	rRNA inh HTS RFP	ALR inh	RanGTP-Impb inh	FGF22 binding	T cruzi repl	Calb FLC
CC1=NN(c2ccccc2)C(=O)C1N=Nc1ccc(C)cc1 (centres undefined)	.	-13	.	.	.	-2	1.2	.	2	-4
O=C(/C=C/c1ccc(Cl)c([N+](=O)[O-])c1)Nc1ccc(N2CCCC2)c(Cl)c1	-2.9	1	15	19	2.4	-2	1.6	i	5	-11
COc1ccc(-c2nn(-c3ccccc3)cc2C(=O)Nc2nccs2)cc1OC	.	16	.	.	.	-3	1.4	.	19	43
O=C(N/N=C/c1cccc(Cl)c1)C1CCCC1	1.1	-3	4	7	-1.5	-5	1.3	i	4	-3
COc1cccc(/C=C/C(=O)NCCc2ccc(OC)c(OC)c2)c1	-23	-1	-11	-8	-3.7	-2	1.5	i	-6	14
C#CC1(NC(=O)NCCCC)CCCCC1	-1.6	-3	15	0	0.2	-4	-2.8	i	-21	6
COC(=O)c1noc(C)c1-c1ccnn1C(=O)c1ccc(C)cc1	0.2	-5	14	17	-0.7	-4	12*	i	-4	4
CCn1c(SCC(=O)N2CCCC2)nc2c(c1=O)SC(C)C2 (centres undefined)	-7.0	-3	4	9	1.6	-11	-0.3	i	3	-3
COc1cc(C(=S)N2CCOCC2)ccc1OC(=O)c1ccccc1C	1.6	-4	-15	-14	-0.4	18	?	i	-4	1
NC(=NC(=O)c1ccc(OCC(F)(F)F)nc1)c1ccc(Cl)cc1	-4.8	3	-13	-10	-1.3	-12	1.4	i	-19	7
Cc1occc1C(=O)NNC(=O)CN1C(=O)NC(C)(c2ccccc2)C1=O (centres undefined)	-0.4	.	8	9	-1.2	.	8.6	.	-4	4
Nc1ccc(C(=O)N2CCN(S(=O)(=O)c3ccc(Cl)s3)CC2)cc1[N+](=O)[O-]	5.3	4	-8	-13	3.6	1	0.4	.	6	6
O=C(COC(=O)c1ccc(Cl)nc1)NCc1ccc(F)cc1	-1.2	-1	.	.	.	1	.	i	.	.
CCOc1ccc(CCNC(=O)COC(=O)CCS(=O)(=O)c2ccc(C)cc2)cc1OCC	2.7	1	-2	-4	0.6	-1	.	i	5	-7
CSc1nc2nc3c(cc2c(=O)[nH]1)C(O)Oc1ccc(C)cc1-3 (centres undefined)	-0.9	-7	1	-5	11	3	1.9	i	-10	60
Cc1cc(Cl)c(OCCOCCN2CCNCC2)c(Cl)c1	11	0	-4	0	-1.7	-15	0.8	i	15	-10
CCOc1ccc(OCc2ccc(C(=O)NC(C)C)o2)cc1	-9.2	-6	4	3	0.5	19	-1.6	i	12	-4
Cc1ccc(-n2c(C)nnc2SCC(=O)N(C)C2CCS(=O)(=O)C2)cc1 (centres undefined)	-1.7	-1	21	5	-1.5	-2	.	i	.	.
CCOC(=O)N1CCN(CC(=O)c2ccc3c(c2)CCN3)CC1	2.1	-1	3	0	-0.8	35	?	i	4	-24
Brc1cccc(OCCN2CCc3ccccc3C2)c1	-12	2	-15	-15	12	14	4.9	i	48	36
C/C(=N/OC(=O)c1ccc(Br)cc1)c1ccc(C)cc1	1.7	6	-1	2	-1.6	-19	-2.1	i	-1	-6
CC(C)C(=O)Nc1ccc(O)c(-c2csc(N)n2)c1	2.5	5	-6	-2	0.2	-12	-1.1	i	1	2
COc1ccc(NC(=O)c2noc3c2CCC3)cc1	.	-10	.	.	.	45	-0.1	.	4	-8
Cc1cc(C(=O)COc2ncnc3sccc23)c(C)n1C1CC1	0.2	0	10	1	9.0	-2	?	i	19	11
CN1CCC(OC(=O)c2cc3cc(Br)ccc3oc2=O)CC1	3.5	-4	2	-3	-0.2	11	-3.3	.	-13	-8
Following part:
SMILES	AF4-AF9 inh	Beta cell apopt	rRNA inh HTS	rRNA inh HTS OD600	rRNA inh HTS RFP	ALR inh	RanGTP-Impb inh	FGF22 binding	T cruzi repl	Calb FLC
CC(=O)Nc1nn(C)c2nc(C)cc(C)c12	-0.1	-1	19	0	1.5	-10	-2.9	i	-7	-1
O=C(Cn1cnc2c(nnn2Cc2ccc(Cl)cc2)c1=O)NCc1ccco1	.	1	.	.	.	11	-5.2	.	-35	-3
CC1Oc2ccccc2N(CC(=O)NCCc2ccccc2)C1=O (centres undefined)	.	-2	5	12	2.0	-1	0.6	.	-4	13
CC(=O)Nc1ccc(NC(=O)Nc2cccc(Cl)c2)cc1	-13	-8	2	6	0.1	-3	-1.9	i	-1	11
Nc1c(C(=O)NCCN2CCOCC2)c2nc3ccccc3nc2n1-c1ccc2c(c1)OCO2	.	0	.	.	.	-52	12	.	2	14
CC(=O)CC(=O)Nc1ccc2ccccc2c1	1.2	-11	0	-2	0.4	19	-8.4	i	-4	11
CC(C)(C)NC(=O)COC(=O)c1cc(Cl)ccc1[N+](=O)[O-]	0.5	-7	4	7	3.9	-12	-3.8	i	-4	35
CCCCNC(=O)CCCCC(=O)N/N=C/c1cccc(Cl)c1	.	-2	.	.	.	.	-2.8	.	-3	0
Cc1ccc(NC(=O)c2c([N+](=O)[O-])c(C(C)(C)C)nn2C)cc1	3.0	3	-1	1	-2.0	0	2.6	i	-2	-39
CN(C)c1nc(-c2ccc([N+](=O)[O-])cc2)cs1	.	-1	.	.	.	1	-2.2	.	-5	0
CC(C)C(c1nnnn1Cc1ccccc1)N(Cc1ccco1)Cc1cccs1 (centres undefined)	.	4	.	.	.	-3	4.2	.	48	12
Cc1ccc(C(=O)NCC(=O)Nc2ncccc2C)s1	0.3	-2	4	6	-2.1	-16	.	i	-3	-5
Clc1ccc(-c2ncc3ccccn23)c(Cl)c1	0.6	0	-18	-9	13	30	5.5	i	-1	-3
COc1ccc(NC(=S)N2CCc3ccccc3C2)cc1OC	6.0	-7	-5	-5	-4.4	.	2.5	i	-8	-2
Cc1nc2c(sc3nc(N4CCOCC4)c4c(c32)CC(C)(C)OC4)c(-c2ccc(Cl)cc2)c1C(=O)O	-8.9	8	6	4	-3.3	-7	?	i	30	-3
CCOC(=O)CC(NC(=O)c1ccco1)c1ccc(C)cc1 (centres undefined)	.	1	.	.	.	.	1.1	.	0	2
CCc1cc(CNC(=O)c2ccc(OC3CCN(CCc4ccccc4)CC3)cc2)on1	-0.1	-2	-3	0	1.0	-19	0.5	i	11	-8
COc1cccc(/C=c2\sc3nc(-c4cccs4)nn3c2=O)c1OC	.	-13	.	.	.	0	-3.0	.	-28	-15
COc1ccc(C2OC(=O)CC2C(=O)NCc2ccc(Cl)cc2)cc1OC (centres undefined)	-1.7	-4	7	2	2.5	-7	-1.5	i	-7	-11
CCCn1c2ccccc2c2cnn(CC(=O)NC3CCCCC3)c(=O)c21	-3.1	1	5	9	-0.2	-3	4.0	i	-2	-1
CCOC(=O)c1ccccc1NC(=O)COC(=O)c1ccccc1C(=O)N(C)c1ccccc1	0.5	2	-8	-11	0.1	.	3.1	i	15	-3
CCOCCOC(=O)c1[nH]c2c(c1C)C(=O)CC(c1ccc(OC)c(OC)c1)C2 (centres undefined)	-4.0	6	12	7	-1.1	-1	-4.4	i	-4	19
COc1ccc(C2CCCN2C(=O)Nc2ccc(C)c(C)c2)cc1OC (centres undefined)	-5.7	-2	-8	-16	2.5	45	-1.4	i	-2	0
COc1ccc(C)cc1NS(=O)(=O)c1cc(C)ccc1C	.	-2	.	.	.	-2	3.2	.	3	-4
N/C(=N\N=C\c1ccco1)SC1CC(=O)N(c2ccc(C(=O)O)cc2)C1=O (centres undefined)	0.6	-6	6	6	-5.6	2	4.0	i	-8	5
Additional entries follow.
SMILES	AF4-AF9 inh	Beta cell apopt	rRNA inh HTS	rRNA inh HTS OD600	rRNA inh HTS RFP	ALR inh	RanGTP-Impb inh	FGF22 binding	T cruzi repl	Calb FLC
Cc1noc(C)c1C(=O)OCC(=O)Nc1ccccc1Oc1ccccc1	.	5	.	.	.	-2	0.7	.	-5	0
CC(C)CN(CC(C)C)S(=O)(=O)N1CCC(C(=O)NCc2ccco2)CC1	-0.1	-1	7	4	1.1	.	-1.8	i	4	15
Cc1cccnc1NC(=S)NC(=O)c1cccs1	4.0	4	-2	9	-10.0	.	?	i	-23	-24
CC(C)N1CCN(C(=O)c2ccc(NC(=O)c3ccc(Br)o3)cc2)CC1	1.0	-3	-1	4	3.0	.	.	i	.	.
Cc1csc(C(C)NC(=O)c2ccc(OC3CCN(CCc4ccccc4)CC3)cc2)n1 (centres undefined)	2.5	-2	6	4	2.3	-3	5.9	i	20	-17
[O-][n+]1onc2c1CCc1nnc(-c3ccccc3)cc1-2	.	-14	.	.	.	.	-4.7	.	-8	-4
COc1cccc(CN2CCN(Cc3ccc(O)c(OC)c3)CC2CCO)c1 (centres undefined)	0.0	-7	12	11	2.5	.	-1.9	i	-14	-17
COc1ccc(Cl)cc1NC(=O)CN(C)C(=O)C1CC1	-2.5	-2	.	.	.	-6	.	i	.	.
COC(=O)c1ccc(CSc2nnc(-c3ccncc3)n2Cc2ccccc2)o1	.	-1	.	.	.	-6	3.3	.	38	-12
Cc1cccc(C)c1NC(=O)NCCCN1CCN(c2ccccc2)CC1	-1.0	-5	5	-10	-8.9	82*	-0.9	i	-9	4
COC(=O)c1cc(S(=O)(=O)N2CCCCC2)c[nH]1	-0.5	0	-1	5	-0.7	-29	-1.4	i	-5	-5
COc1ccc(C2Nc3ccccc3NC3=C2C(=O)CC(C)(C)C3)cc1OC (centres undefined)	-1.0	-9	4	-4	37	73	1.5	i	4	-1
COc1ccc(NS(=O)(=O)c2ccc(OC)c(NC(=O)CCC3CCCCC3)c2)cc1	.	4	.	.	.	-13	1.4	.	-13	-2
COc1ccc([N+](=O)[O-])cc1NC(=O)c1ccco1	1.8	4	13	15	5.9	-2	-6.2	i	4	-5
CCC(C)NCCOCCOc1ccc(Cl)c2ccccc12 (centres undefined)	-13	14	-53*	-29*	-17*	-9	3.6	i	55*	5
c1coc(-c2ccnc(-n3cccc3)n2)c1	0.1	-8	18	15	2.3	.	0.1	i	2	-7
CCCCOP(=O)(OCCCC)C(O)c1ccc(Br)cc1 (centres undefined)	.	-4	.	.	.	-16	-2.5	.	-8	54
COC(=O)c1ccc(OC)c(NS(=O)(=O)c2ccc(-n3cnnn3)cc2)c1	-1.1	-6	-3	0	0.8	-5	-0.2	i	-2	5
COc1ccc(C2(C)NC(=O)N(Cc3cc(Cl)cc4c3OCOC4)C2=O)cc1OC (centres undefined)	.	-5	.	.	.	10	1.4	.	10	2
COc1ccc(CNC(=O)[C@@H](C)NC(=O)[C@@H]2Cc3ccccc3CN2)cc1	-0.7	-2	.	.	.	-3	1.6	i	-8	-1
COc1cc(NC(=O)C/C(C)=N/NC(=O)Cc2ccccc2)c(OC)cc1Cl	.	?	.	.	.	0	3.2	.	8	1

Random excerpt: 2 records from the list, in no set order.
SMILES	AF4-AF9 inh	Beta cell apopt	rRNA inh HTS	rRNA inh HTS OD600	rRNA inh HTS RFP	ALR inh	RanGTP-Impb inh	FGF22 binding	T cruzi repl	Calb FLC
Cc1cccc(C)c1NC(=O)NCCCN1CCN(c2ccccc2)CC1	-1.0	-5	5	-10	-8.9	82*	-0.9	i	-9	4
COc1ccc(CNC(=O)[C@@H](C)NC(=O)[C@@H]2Cc3ccccc3CN2)cc1	-0.7	-2	.	.	.	-3	1.6	i	-8	-1

Assay outcomes: PubChem BioAssay, Broad Institute
